# Mtb H37Rv = Mycobacterium tuberculosis H37Rv growth inhibition, cell based, confirmatory dose response (AID 1949). most inactive calls were filed without a number and no value below 0 was filed. inhibition, % at 10 µg/mL, or IC50 in µg/mL where a hit was titrated. 100,000 tested, 1.6% active;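 active = confirmed in a dose series; inconclusive = about 50% or more but not retested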;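 also: bacteria grown 7 days with compound before Alamar blue readout; 0% = untreated bacteria and 100% = reference antibiotic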
# An asterisk follows results filed as active; i = inactive; ? = inconclusive. This is a subset (hit frequency here may not be typical).
SMILES,Mtb H37Rv
Cc1ccc(C(=O)COC(=O)CN2C(=O)C3C4C=CC(C5CC45)C3C2=O)cc1C (centres undefined),i
O=C(CSc1nnnn1-c1ccccc1)Nc1ccc(Br)cc1F,i
Cc1sc(NC(=O)c2ccc(I)cc2)c(C(=O)O)c1C,i
CC(C)c1ccc(C(=O)N2CCN(c3cccc(Cl)c3)CC2)cc1,i
Cc1c(Cl)cccc1NC(=O)CSCC(=O)Nc1nc(-c2ccccc2)cs1,i
COC(=O)COc1ccc2c(=O)c(-c3ccccc3Cl)c(C)oc2c1,0.42µg/mL*
O=c1ccccn1Cc1ccc(Cl)cc1Cl,i
FC(F)(F)COc1nc(N2CCOCC2)nc(N2CCN(c3ccccc3)CC2)n1,i
Cc1cccc(NC(=O)C(=O)NCc2ccco2)c1,i
CN(C)C(=S)Nc1ccccc1OC(F)F,i
Cc1nc(NC(=O)Cc2ccccc2)ccc1Br,i
O=C(Nc1ccc(S(=O)(=O)NCCc2ccccc2)cc1)C(c1ccccc1)c1ccccc1,i
CC(Cc1ccccc1)NC(=O)Cc1cccc2ccccc12 (centres undefined),i
O=C(CN(c1cccc([N+](=O)[O-])c1)S(=O)(=O)c1ccccc1)NC1CCCCC1,i
S=C(NCCC1=CCCCC1)NCc1ccco1,4%
CCOc1ccc(S(=O)(=O)Nc2ccccc2F)cc1,i
COc1cc(/C=C(/C#N)c2ccc(Cl)cc2)ccc1OCC(=O)Nc1ccccc1,11%
COc1ccc(N2CCN(C(=O)COc3ccc(C)cc3C)CC2)cc1,i
CCOc1ccc(-n2c(SCC(=O)Nc3ccccc3-c3ccccc3)nnc2-c2cccnc2)cc1,i
O=c1oc2cc(OCc3cccc(C(F)(F)F)c3)ccc2c2ccccc12,i
Cc1ccccc1Cn1c(CNC=O)nc2ccccc21,i
CCCCNC(=O)CCc1ccccc1,i
O=C(/C=C\c1ccccc1)Nc1cccc(-c2nc3ccccc3[nH]2)c1,7.7µg/mL*
Cc1ccc(S(=O)(=O)NC(C)C(=O)O)cc1 (centres undefined),i
Cc1ccc(CN2CCN(CC3CC=CCC3)CC2)cc1 (centres undefined),i

# Four of the compounds above, field by field.
SMILES: CCOc1ccc(S(=O)(=O)Nc2ccccc2F)cc1
  Mtb H37Rv: i

SMILES: COc1cc(/C=C(/C#N)c2ccc(Cl)cc2)ccc1OCC(=O)Nc1ccccc1
  Mtb H37Rv: 11%

SMILES: COc1ccc(N2CCN(C(=O)COc3ccc(C)cc3C)CC2)cc1
  Mtb H37Rv: i

SMILES: CCOc1ccc(-n2c(SCC(=O)Nc3ccccc3-c3ccccc3)nnc2-c2cccnc2)cc1
  Mtb H37Rv: i

# (continued)
SMILES,Mtb H37Rv
CCOc1cc(C2CC(=O)Nc3ccc4ccccc4c32)c(Cl)cc1OC (centres undefined),27%
COc1ccc(S(=O)(=O)N2CCCN(S(=O)(=O)c3ccc(OC)c(C)c3C)CC2)c(C)c1C,2%
COc1ccc(/C(N)=N/OC(=O)c2ccc(C)cc2)cc1OC,i
Cc1ccc(S(=O)(=O)Nc2ccccc2Br)cc1,i
Cc1cc(Cl)cc(Cl)c1OCCOc1ncnc2ccccc12,i
CCOc1ccc(NC(=O)C(C)Oc2ccc(C)c(C)c2)cc1 (centres undefined),4µg/mL*
COc1cccc(NC(=O)CN(Cc2cccc(Cl)c2)S(=O)(=O)c2ccc(Cl)cc2)c1,i
COc1ccc(N2C(=O)CC(N(CCc3cccs3)C(=O)Nc3ccccc3)C2=O)cc1 (centres undefined),i
COC(=O)COc1cc(Cl)c(C2NC(=S)NC(c3ccccc3)=C2C(C)=O)cc1OC (centres undefined),i
CCNC(=O)CN(c1ccc(Br)c(C)c1)S(C)(=O)=O,i
Cc1cccc(OCCn2c(S(=O)(=O)O)nc3ccccc32)c1,i
O=C(CCCOc1ccccc1)Nc1cccc(I)c1,i
C=CCn1c(SCc2nc3ccccc3[nH]2)nc2sc(C)c(C)c2c1=O,i
O=C(NCC1CCCO1)Nc1ccc(NC(=O)NCC2CCCO2)cc1 (centres undefined),6%
Cc1onc(-c2ccccc2Cl)c1C(=O)Nc1cccc2ccccc12,i
Cc1cccc(OCc2nn3c(-c4ccccc4Cl)nnc3s2)c1,i
COc1ccc(CNC(=O)C2CC(=O)N(c3ccc(OCc4ccc(F)cc4)cc3)C2)cc1 (centres undefined),i
CN(C)c1ccc(-c2nc3c4c5c(sc4ncn3n2)C(C)(C)NC(C)(C)C5)cc1,28%
CCc1ccccc1OCCSc1ncccn1,1%
COC(=O)c1sc(NC(=O)c2ccc(Cl)cc2)nc1C,i
CC(N)C(=O)Nc1ccc2c(c1)Cc1ccccc1-2 (centres undefined),?
O=C(Nc1nc(-c2ccccc2)cs1)C(Cc1ccccc1)N1C(=O)c2ccccc2C1=O (centres undefined),i
O=C(NCCOc1ccccc1Cl)c1cccnc1,i
C=C1C2(C(=O)NCCN3CCOCC3)CCC(C2)C1(C)C (centres undefined),i
COc1ccc2ncc(C(=O)O)c(Nc3ccccc3C)c2c1,5%
# Continued:
SMILES,Mtb H37Rv
COc1cc(C(=S)N2CCCC2)cc(Cl)c1O,i
CN(Cc1ccccc1)S(=O)(=O)c1ccc(OCC(=O)Nc2ccc(F)c(Cl)c2)cc1,2%
CC1CCN(CCOCCSc2ccc(Cl)cc2)CC1,i
O=C1C2CCCCC2C(=O)N1c1n[nH]c(CCc2ccccc2)n1 (centres undefined),i
COc1ccccc1OCC(=O)Nc1c(F)cccc1F,i
CCC(CC)C(=O)Nc1ccc(NC(=O)c2ccco2)c(C)c1,i
CCc1cc(=O)oc2c(C)c(OCC(=O)c3ccc(C)cc3)ccc12,3%
COc1ccccc1C(=O)NC(=S)Nc1ccccc1N1CCCC1,?
O=C(CSc1nnc(-c2cccnc2)s1)NC1CCCCC1,3%
O=C1CC(c2ccc(Cl)c(Cl)c2)Sc2nc(-c3ccccc3)nn21 (centres undefined),0%
COc1cc(NC(=O)c2cccc(Br)c2)cc(OC)c1OC,i
Cc1cc(OC(C)C(=O)Nc2ccccc2C(F)(F)F)ccc1Cl (centres undefined),1%
CCOc1cc(CN2CCN(C(=O)c3ccco3)CC2)ccc1OC,4%
Cc1ccc2oc(C(=O)Nc3ccc(S(=O)(=O)Nc4nccs4)cc3)c(C)c2c1,i
O=C(CSc1ccc(Cl)cc1)Nc1ccc(S(=O)(=O)N2CCCC2)cc1,0%
O=C(Nc1ncc(Cc2ccc(C(F)(F)F)cc2)s1)c1ccc(-c2cccc([N+](=O)[O-])c2)o1,?
COc1cccc(N2CCN(C(=O)Nc3ccc(F)cc3)CC2)c1,i
CCc1cc2c(N3CCN(c4ccccc4C)CC3)ncnc2s1,i
Cn1c(CNC(=O)c2ccccc2Cl)n[nH]c1=S,i
Cc1ccc(OCC(=O)NNC(=O)COc2ccc(Br)cc2C)c(C)c1,i
COC(=O)CCC(=O)Nc1ccccc1C(=O)Nc1ccccc1,i
O=C(COc1ccccc1Cl)c1ccc(OC(=O)c2ccccc2)cc1,38%
Cc1ccc(C(=O)N2CCN(c3ccc(C(F)(F)F)cc3[N+](=O)[O-])CC2)c(C)c1,7%
COc1c(Cl)cc(C(=O)Nc2ccc(S(=O)(=O)N3CCOCC3)cc2)cc1Cl,i
Cc1ccc2nc(N3CCC(Cc4ccccc4)CC3)c(C=O)c(=O)n2c1,i
# Remaining list, next part.
SMILES,Mtb H37Rv
CC(C)Cc1nnc(NC(=O)c2cccc(I)c2)s1,i
N#CCSCC(=O)Nc1ccc(Br)cc1,i
Cc1cc(OCCN2CCCC(C)C2)cc(C(C)C)c1 (centres undefined),i
O=C(Oc1ccc([N+](=O)[O-])cc1)c1cc2ccccc2oc1=O,i
COc1ccc(C(C)C)cc1S(=O)(=O)Nc1ccncc1,i
COc1ccccc1N(CC(=O)NCCSc1ccccc1)S(C)(=O)=O,i
CCN(CC)c1ccc(NC(=O)c2ccccc2)c(C)c1,i
O=C(Nc1ccc(-c2nc3ccccc3s2)cc1)C1CCCO1 (centres undefined),i
Cc1cccc(C)c1NC(=O)CN(C1CCCCC1)S(=O)(=O)c1ccc(Cl)cc1,i
COc1cc(NC(=O)COc2cc(C)c(Cl)c(C)c2)ccc1NC(=O)c1ccco1,i
Cc1ccc(C)c(NC(=O)CN(c2ccc(C(C)C)cc2)S(C)(=O)=O)c1,i
CCOc1ccc(NCC(O)CN2c3ccccc3Sc3ccccc32)cc1 (centres undefined),22%
COc1ccc(CCNC(=O)COc2ccc(NC(C)=O)cc2)cc1OC,i
O=C(Nc1ccccc1Cl)c1cnsn1,?
O=C(O)c1ccc(Cl)c2c1C1C=CCC1C(c1ccc(S(=O)(=O)N3CCOCC3)cc1)N2 (centres undefined),i
Cc1cc(NC(=O)c2ccccc2-c2ccccc2C(=O)O)no1,i
Cc1ccc(S(=O)(=O)Nc2ccccc2)cc1,4%
O=[N+]([O-])c1ccc(N/C(=N/S(=O)(=O)c2ccccc2)C(F)(F)F)cc1,i
COc1ccc(NC(=O)n2ncc(-c3ccc(Cl)cc3)c2N)c(OC)c1,i
O=C(Nc1ccccc1N1CCCC1)C(Cl)(Cl)Cl,i
CCN(CC)S(=O)(=O)c1ccc(OC)c(NC(=O)Cc2ccc(F)cc2)c1,10%
COc1ccc2cc(C(C)c3nc4ccccc4[nH]3)ccc2c1 (centres undefined),i
CCOc1ccc(C(=O)Nc2ccc(Cl)cc2)cc1OCC,i
CCOC(=O)COc1cc(Cl)c(C=O)cc1OCC,13%
CC(=O)c1ccc(NC(=O)NNC(=O)c2cc(Br)ccc2Cl)cc1,i
# Further entries follow:
SMILES,Mtb H37Rv
CC(=O)c1cccc(NC(=O)c2cnccn2)c1,i
O=C(Nc1nc2c(Cl)c(Cl)ccc2s1)c1sc2ccccc2c1Cl,i
CCc1ccc(Oc2coc3cc(OCC(=O)Nc4cc(C)ccc4C)ccc3c2=O)cc1,1%
COc1ccccc1COc1ccc2c(C)c(Cc3ccccc3)c(=O)oc2c1,i
Cc1nnc(SCC(=O)Nc2ccc(Cl)cc2Cl)c2ccccc12,i
CCN1C(=O)c2cccc3cc([N+](=O)[O-])cc(c23)C1=O,<0.1µg/mL*
Cc1cccc(NC(=S)NC(=O)c2ccc([N+](=O)[O-])cc2)c1C,1%
COc1cc(S(=O)(=O)N2CCc3ccccc3C2)c(C)cc1C,i
COc1ccccc1CNC(=O)COc1ccccc1OC,i
Cc1nnc(SCc2ccc(Cl)c(Cl)c2)s1,i
O=C(CCSCCC(=O)Nc1ccc2c(c1)OCCO2)Nc1ccc2c(c1)OCCO2,i
O=C(O)CCc1nn2c(nc3ccccc32)[nH]c1=O,i
CC(Sc1nnc(COc2cccc3ccccc23)n1-c1ccccc1)C(=O)Nc1nccs1 (centres undefined),i
Cc1nnc(SCC(=O)NC2CCCCCC2)s1,i
O=C(NCc1ccc2c(c1)OCO2)C(=O)NCC(c1ccccc1)c1ccccc1,i
CC(C)c1ccc(C(O)c2nc3ccccc3n2C)cc1 (centres undefined),3%
COc1cc(C=O)ccc1OCC(=O)Nc1ccc2c(c1)OCO2,i
Cc1ccc(CN(C(=O)COc2cccc(C)c2C)C2CCS(=O)(=O)C2)o1 (centres undefined),i
O=C1c2ccccc2/C(=C/c2ccccc2)N1CCN1C(=O)c2ccccc2/C1=C/c1ccccc1,i
Cc1ccc(NC(=O)c2ccco2)c(NC(=O)COc2ccccc2)c1,i
O=c1c2ccccc2nc(/C=C/c2ccc(Br)cc2)n1-c1ccc(O)cc1,i
S=C(NCc1ccco1)N1CCN(CCc2ccccc2)CC1,i
CCCCc1ccc(NC(=O)CN(c2cccc(OC)c2)S(=O)(=O)c2ccccc2)cc1,i
Cc1onc(-c2ccccc2Cl)c1C(=O)Nc1nnc(C(C)C)s1,1%
CC(=O)Nc1nnc(SCc2cccc(F)c2)s1,2%

# Reprinted from the part before: six entries; new compounds follow.
SMILES,Mtb H37Rv
Cc1ccc(NC(=O)c2ccco2)c(NC(=O)COc2ccccc2)c1,i
O=c1c2ccccc2nc(/C=C/c2ccc(Br)cc2)n1-c1ccc(O)cc1,i
S=C(NCc1ccco1)N1CCN(CCc2ccccc2)CC1,i
CCCCc1ccc(NC(=O)CN(c2cccc(OC)c2)S(=O)(=O)c2ccccc2)cc1,i
Cc1onc(-c2ccccc2Cl)c1C(=O)Nc1nnc(C(C)C)s1,1%
CC(=O)Nc1nnc(SCc2cccc(F)c2)s1,2%
O=[N+]([O-])c1ccccc1S(=O)(=O)NCCC1=CCCCC1,i
CCN(CC(O)COc1ccc2c(c1)CCC2)C1CCCCC1 (centres undefined),i
CSc1ccccc1NC(=O)c1ccc(Cl)s1,5.6µg/mL*
COc1ccccc1OCC(=O)N1CCN(c2cccc(Cl)c2)CC1,i
NS(=O)(=O)c1ccc(CCNC(=S)NC2CCCC2)cc1,i
COc1cc(/C=C\c2[nH]c(=O)[nH]c(=O)c2[N+](=O)[O-])cc(Br)c1OCc1ccc(C#N)cc1,i
CCc1nnc(NC(=O)CSc2nc(O)c(NC(C)=O)c(=O)[nH]2)s1,i
CCOc1cccc2cc(C(=O)O)c(=O)oc12,i
CSc1cccc(NC(=O)CN(c2ccccc2F)S(=O)(=O)c2ccccc2)c1,i
c1ccc(OCCOCCN2CCc3ccccc3C2)cc1,1%
COC(=O)C1=C(C)NC(=O)CC1c1cc(OC)c(OC)c(OC)c1Br (centres undefined),i
O=C(CC1CCCCC1)NC1CCCC1,i
O=C(Cn1cc(C(=O)COc2ccccc2)c2ccccc21)NCc1ccc2c(c1)OCO2,i
Cc1ccccc1N(Cc1ccccc1F)S(C)(=O)=O,2%
O=S(=O)(c1ccc(Br)cc1)n1c(Cc2ccccc2)nc2ccccc21,1%
Cc1ccc(S(=O)(=O)NCCOc2ccccc2Cl)cc1,8%
Cc1cc(NC(=O)c2cnn3c(C(F)(F)F)cc(-c4ccc(Br)cc4)nc23)no1,5%

# Bioassay records: PubChem, Southern Research Institute
